Sfp PPTase inh: blocks B. subtilis Sfp PPTase activity; Q9F4F7; Biochemical Sfp PPTase activity, qHTS; Potency, µM, for the others: max response, negative = inhibition, actives largely listed as inhibitors; hit rate 3.5% among 310,000; AID 1490; active = well fitted inhibition curve with a large enough effect; inconclusive = small, poorly fitted or top-dose-only effect, or another doubt; inactive = no such curve, though single readings can be large or run the other way;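 also: the enzyme is Sfp with the accession as filed and its product quenches rhodamine fluorescence; potency is read from the fitted curve at half-maximal effect; 0% = enzyme reaction without inhibitor and -100% = no enzyme wells; top concentration of the series not given in the record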
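After 15 min at room temperature with compound, 15 nM Sfp received 5 uM rhodamine-CoA plus 12.5 uM BHQ-2-ybbR (50 mM Hepes pH 7.6, 10 mM MgCl2). Rate came from the fluorescence difference over 30 min, ex 525/em 598 nm.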
D2 potentiator: positive allosteric modulators of human D2 dopamine receptor | P14416 | DiscoveRx D2 beta-arrestin cells, luminescence, 90 min; 100% = 57 uM dopamine signal | potentiation, % (no concentration beside the values) | hit rate 0.23% among 360,000; active = potentiation of 50% or more; inconclusive = 30% to 50%; inactive = 30% or less;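 also: compound concentration not given in the record; tested on top of an EC20 dose of dopamine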
Target sequence (P14416 whole entry, looked up): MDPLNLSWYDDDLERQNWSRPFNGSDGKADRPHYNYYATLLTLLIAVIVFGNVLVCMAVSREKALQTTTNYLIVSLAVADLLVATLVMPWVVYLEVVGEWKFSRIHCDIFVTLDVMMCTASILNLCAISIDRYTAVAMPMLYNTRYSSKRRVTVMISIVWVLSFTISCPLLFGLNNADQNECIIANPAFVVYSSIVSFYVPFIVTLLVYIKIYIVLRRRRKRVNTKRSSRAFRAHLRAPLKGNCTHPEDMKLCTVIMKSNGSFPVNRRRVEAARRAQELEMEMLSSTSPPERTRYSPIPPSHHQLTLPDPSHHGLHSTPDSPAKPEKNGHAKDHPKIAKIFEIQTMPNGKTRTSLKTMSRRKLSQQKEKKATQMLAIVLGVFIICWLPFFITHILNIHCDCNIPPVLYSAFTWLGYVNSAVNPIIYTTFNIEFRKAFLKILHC
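D2 cells co-treated with compound plus 50 nM dopamine (EC20) for 90 min at 37 deg C to detect potentiation. Beta-arrestin recruitment was read as enzyme-fragment luminescence after 1 h at ambient temperature. Full response was set by 57 uM dopamine.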
Menin MLL FP FL: displaces fluorescein MLL peptide from human menin; 290,000 tested, under 10 active; FP activity change, % at 61.4 µM; AID 1766; Fluorescence polarization, fluorescein-MLL peptide displacement from menin; inconclusive = falling polarisation curve, or a change in total fluorescence; inactive = total fluorescence flat and polarisation flat or rising; no compound was filed as active; the % refers to the polarisation; negative = inhibition;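 also: % of control where 0% means no effect; inhibitors lower the polarisation; unlabelled MLL peptide was the positive control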
TRPV1 PAM: enhances activation of the human vanilloid receptor TRPV1; Q8NER1; TRPV1-expressing cells, Fluo-8 calcium influx, capsaicin EC20 potentiation; host cell line not named in the record; control for the full effect not named in the record; potentiation, % at 8.33 µM; hit rate 0.02% among 320,000; active means potentiation above 80%; inconclusive means 30% to 80%; inactive means below 30%; also: 0% is about no effect
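TRPV1-expressing cells were cultured overnight at 35.5C and loaded with Fluo-8 calcium dye for 40 to 90 min at room temperature. After a 10 s baseline, compound was added and calcium influx was read kinetically for 3 min (ex 480/em 520 nm).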
ClpP mod: qHTS Assay for Activators of ClpP; ATP-dependent Clp protease proteolytic subunit (Bacillus subtilis (strain 168)), P80244; AID 651965, 2013; purified B. subtilis ClpP, FRET peptide cleavage, 20 min; Potency, µM (top dose mostly 57.5 µM), for inactives: at the highest dose activity change, negative = active; hit rate 1.9% among 340,000; active = well fitted falling curve with a large enough effect; inconclusive = small, poorly fitted or top-dose-only effect; inactive = no such curve, though single readings can be large or run the other way; also: potency is read from the fitted curve at half-maximal effect; the source files actives as falling curves though it sought activators and does not explain the sign; nearly all actives have a fitted effect of over 65% in size; many hits overshoot -100%
Target sequence (P80244 whole entry, looked up): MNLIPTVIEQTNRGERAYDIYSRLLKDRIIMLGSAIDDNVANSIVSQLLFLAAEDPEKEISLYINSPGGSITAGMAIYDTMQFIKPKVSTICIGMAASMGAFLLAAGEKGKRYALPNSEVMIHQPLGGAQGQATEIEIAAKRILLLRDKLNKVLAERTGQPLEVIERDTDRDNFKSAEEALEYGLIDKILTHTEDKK
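FRET quenching reversal measured ClpP activation: 10 microg/mL B. subtilis ClpP at pH 8 with the FRET-FV decapeptide, read at 430 nm after 320 nm excitation. The 20-min minus 0-min signal was scaled between DMSO/no-enzyme wells and ADEP (5.8 microM final).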
gsp agonist: agonists of gsp mutant (McCune-Albright syndrome) | gsp mutant cells, cAMP HTRF, 30 min; control for the full effect not named in the record | hit rate 0.13% among 340,000 | AID 624287 | Potency, µM (doses to about 76.9 µM), for the others: at the top dose activation (cAMP increase), actives largely listed as activators; active = well fitted activation curve with a large enough effect; inconclusive = small, poorly fitted or top-dose-only effect, or another doubt; inactive = no such curve, though single readings can be large or run the other way; cell line not stated here;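 also: phosphodiesterase inhibitor Ro 20-1724 added with compounds to block cAMP breakdown; potency is read from the fitted curve at half-maximal effect; nearly all actives have a fitted effect of over 60% in size; about a fifth of the inactives were tested at one dose only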
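Cells in DMEM/10% FBS with G418 were pretreated with compounds in DMSO plus […] (300 uM stock) for 30 min at 37C. cAMP was measured by HTRF (cAMP-d2 plus anti-cAMP antibody-K) after 30 min at room temperature.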
gsp antag: antagonizes gsp, the McCune-Albright syndrome mutation; gsp-mutant cells, cAMP HTRF, 30 min; control for the full effect not named in the record; Potency, µM (series often up to 76.9 µM), inactives show at the highest dose activity change, negative = inhibition, usual class: inhibitors; hit rate 0.4% among 340,000; active = falling curve of any shape with a large fitted effect; inconclusive = falling curve, mostly with a smaller effect; inactive = flat or rising curve; cell line not stated here;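 also: intracellular cAMP measured with PDE inhibitor Ro 20-1724 present during compound exposure; potency is read from the fitted curve at half-maximal effect; % is scaled to controls: 0 for no effect and ±100 for the full control effect; nearly all actives have a fitted effect of over 65% in size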
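G418-selected cells were plated in DMEM/10% FBS for 16-24 h at 37C, then treated with compounds plus the PDE inhibitor […] (300 uM solution added) for 30 min at 37C. Intracellular cAMP was measured by HTRF after 30 min lysis at room temperature.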
Numbers without * were called inactive; & = joins results of further samples; [ ] = remark or other dose.

For CCC(C)C(N)C1=NC(C(=O)N[C@@H](CC(C)C)C(=O)N[C@H](CCC(=O)O)C(=O)N[C@H](C(=O)N[C@H]2CCCCNC(=O)[C@H](CC(N)=O)NC(=O)[C@@H](CC(=O)O)NC(=O)[C@H](Cc3cnc[nH]3)NC(=O)[C@@H](Cc3ccccc3)NC(=O)[C@H]([C@@H](C)CC)NC(=O)[C@@H](CCCN)NC2=O)[C@@H](C)CC)CS1 (stereo not given in full) the results were D2 potentiator -5.0, ClpP mod -18.8% and gsp antag 13.0%.
`Cc1ccc(C(=O)Nc2cccc(C(=O)NCc3ccco3)c2)cc1` gave Sfp PPTase inh 17.0%, D2 potentiator -26.2, Menin MLL FP FL -2.9, TRPV1 PAM 6.8, ClpP mod -1.7%, gsp agonist -41.0%[inhibitor] and gsp antag -6.5%.
`O=C(CSc1cccc2cccnc12)N/N=C/c1ccc(F)cc1` gave Sfp PPTase inh 1.0%, D2 potentiator -7.8, Menin MLL FP FL 0.8, TRPV1 PAM 18.7, ClpP mod -9.5%, gsp agonist -0.9%[15.4 µM] and gsp antag -5.0%.
`Cc1nnc(N(CCC#N)CCC#N)s1` gave Sfp PPTase inh 21.5%, D2 potentiator -18.8, Menin MLL FP FL 3.4, TRPV1 PAM -5.2, ClpP mod 0.7%, gsp agonist 3.0% and gsp antag 4.3%.
`CCOC(=O)Cc1nnc(Nc2cc(C)ccc2C)c2ccccc12` gave Sfp PPTase inh 10.5%, D2 potentiator -5.1, Menin MLL FP FL 0.2, TRPV1 PAM 4.8, gsp agonist 24.0% and gsp antag -12.9%.
COc1ccc2nc(-c3ccccc3)[nH]c2c1 was read as Sfp PPTase inh -5.6%, D2 potentiator -7.3, Menin MLL FP FL 5.9, TRPV1 PAM inconclusive, ClpP mod 77.5%, gsp agonist -27.0% and gsp antag -17.3%.
For CN/S(=N/S(=O)(=O)c1ccccc1)c1ccc(C)cc1 (stereo not given) the results were Sfp PPTase inh 1.3%, D2 potentiator -7.2, Menin MLL FP FL 6.0, TRPV1 PAM inconclusive, ClpP mod -1.4%, gsp agonist -6.2% and gsp antag 3.8%.
For Cc1ccc(N(C)S(=O)(=O)c2cccc(C(=O)NCC(c3cccs3)N3CCOCC3)c2)cc1 (stereo not given) the results were D2 potentiator -43.8, TRPV1 PAM -1.0, ClpP mod 2.1%, gsp agonist -4.6% and gsp antag -23.3%.
Screening O=C(COC(=O)c1ccc(S(=O)(=O)Nc2ccccc2)cc1)NCCN1C(=O)CSC1=O returned Sfp PPTase inh 18.2%, D2 potentiator -16.1, Menin MLL FP FL 3.7, TRPV1 PAM -11.0, ClpP mod 0.7%, gsp agonist inconclusive and gsp antag -2.6%.
`O=C(c1ccc2nc(N3CCOCC3)sc2c1)N1CCN(c2ccc(Cl)cc2)CC1` gave Sfp PPTase inh 2.5%, D2 potentiator -6.0, Menin MLL FP FL 0.4, TRPV1 PAM -10.9, ClpP mod -1.8%, gsp agonist inconclusive and gsp antag -12.7%.
Screening Cc1cccc(-c2noc(CCC(=O)NC3CCCCC3)n2)c1 returned Sfp PPTase inh 13.2%, D2 potentiator -24.1, TRPV1 PAM -12.7, ClpP mod 0.7%, gsp agonist inconclusive and gsp antag -5.7%.
`COc1ccc(C(=O)c2ccc(Br)cc2)c(OC)c1OC` gave D2 potentiator -31.7, ClpP mod 2.1%, gsp agonist 11.2%[15.4 µM] and gsp antag -13.6%.
COc1cc2c(cc1NC(=O)c1cccc([N+](=O)[O-])c1)oc1ccccc12 was read as Sfp PPTase inh -6.4%, D2 potentiator 7.1, Menin MLL FP FL 3.4, TRPV1 PAM -0.6, ClpP mod -3.1%, gsp agonist 4.8% and gsp antag -2.1%[15.4 µM].
`CC(=O)NC(C(=O)c1ccccc1)C(=O)c1ccccc1` gave Sfp PPTase inh 9.5%, D2 potentiator -15.0, TRPV1 PAM 1.7, ClpP mod 0.9%, gsp agonist 4.1% and gsp antag 0.1%.
O=C(c1cc2cc(Cl)ccc2[nH]1)N1CCN(c2ccc(F)cc2)CC1 was read as Sfp PPTase inh 6.7%, D2 potentiator -7.6, Menin MLL FP FL -1.5, TRPV1 PAM 1.5, gsp agonist inconclusive and gsp antag 7.6%.
`Cc1ccc(Cl)cc1Nc1nc(-c2cccnc2)cs1` gave Sfp PPTase inh -13.6%, D2 potentiator -7.2, Menin MLL FP FL -2.4, TRPV1 PAM -1.6, ClpP mod -1.6%, gsp agonist 6.4% and gsp antag -8.8%.
O=C(NCc1cccs1)C1CCCN1C(=O)Nc1ccc(Cl)cc1 (stereo not given) was read as Sfp PPTase inh 18.6%, Menin MLL FP FL -0.8 and TRPV1 PAM 7.1.
O=C(O)c1ccc(Sc2ccccn2)c([N+](=O)[O-])c1 was read as Sfp PPTase inh 1.0%, D2 potentiator 0.7, Menin MLL FP FL -1.8, TRPV1 PAM 4.7, gsp agonist 16.2% and gsp antag -2.6%.
For CCN(CC(=O)NCc1cccs1)C(=O)C(c1ccccc1)c1ccccc1 the results were Sfp PPTase inh 15.0%, D2 potentiator -7.0, Menin MLL FP FL 1.4, TRPV1 PAM 28.2, gsp agonist inconclusive and gsp antag -5.7%.
COc1cc([N+](=O)[O-])ccc1NC(=O)N1CCCCCC1 was read as Sfp PPTase inh 10.3%, D2 potentiator 1.2, TRPV1 PAM -2.3, ClpP mod 0.6%, gsp agonist -1.9% and gsp antag -2.5%.
`Cc1nnc(N2C(=O)C(O)=C(C(=O)c3ccco3)C2c2cccc([N+](=O)[O-])c2)s1` (stereo not given) gave Sfp PPTase inh 12.9%, D2 potentiator -29.1, TRPV1 PAM 19.6, ClpP mod -0.3%, gsp agonist -8.3% and gsp antag -2.2%.
For COc1nc(Nc2cccc(C(F)(F)F)c2)nc(OC)n1 the results were Sfp PPTase inh 13.9%, D2 potentiator -32.9, Menin MLL FP FL 1.3, TRPV1 PAM 4.0, ClpP mod 0.5%, gsp agonist -28.7% and gsp antag 15.4%.
`Nc1nc(Nc2cccc3ccccc23)nc(C2CCCC2=O)n1` (stereo not given) gave Sfp PPTase inh 5.6%, Menin MLL FP FL 1.6 and TRPV1 PAM 1.8.
For Cc1ccc(S(=O)(=O)N/N=C2\C(=O)C3(C)CCC2C3(C)C)cc1 (stereo not given) the results were Sfp PPTase inh 19.2%, D2 potentiator -2.6, Menin MLL FP FL -7.8, TRPV1 PAM 0.0, gsp agonist -44.0%[inhibitor] and gsp antag 2.4%.
`O=C(NC1CCCC1)c1ccc2c(c1)N(Cc1ccc(F)cc1)CCS2` gave Sfp PPTase inh 4.6%, D2 potentiator 1.4, Menin MLL FP FL -1.0, TRPV1 PAM -2.3, ClpP mod 3.9%, gsp agonist inconclusive and gsp antag inconclusive.
Screening CCCc1nc2c(C)cc(-c3nc4ccccc4n3C)cc2n1Cc1ccc(-c2ccccc2C(=O)O)cc1 returned Sfp PPTase inh 27.1%&22.4%, D2 potentiator -4.9, Menin MLL FP FL 4.3&4.7, TRPV1 PAM -6.3, ClpP mod 4.6% and gsp antag inconclusive.
O=C(NC12CC3CC(CC(C3)C1)C2)N1CCN(C(=O)C2CCCO2)CC1 (stereo not given) was read as Sfp PPTase inh 14.4%, D2 potentiator -1.9, Menin MLL FP FL 3.0, TRPV1 PAM 28.2, ClpP mod -6.5%, gsp agonist -2.0% and gsp antag 2.7%.
For COc1cc2c3nnc(-c4ccc(F)cc4)c-3cn(Cc3ccc(C)cc3)c2cc1OC the results were Sfp PPTase inh -28.0%, D2 potentiator -11.1, Menin MLL FP FL inconclusive, TRPV1 PAM -18.8, ClpP mod 20µM*, gsp agonist 5.0% and gsp antag -5.9%.
`Cc1ccc2c(c1)cc(CN(Cc1ccco1)C(=O)N1CCOCC1)c1nnnn12` gave Sfp PPTase inh 5.7%, D2 potentiator 25.7, Menin MLL FP FL 0.5, TRPV1 PAM -1.5, ClpP mod 0.7%, gsp agonist -32.1%[inhibitor] and gsp antag -7.5%.
For CCOCCCNCC(=O)Nc1cc(S(=O)(=O)N2CCOCC2)ccc1N1CCOCC1 the results were D2 potentiator -1.0, ClpP mod -1.2%, gsp agonist inconclusive and gsp antag -0.3%.
`Cc1oc(-c2ccccc2Cl)nc1CS(=O)(=O)CC(=O)NCCc1ccccc1` gave Sfp PPTase inh -11.6%, D2 potentiator 0.0, Menin MLL FP FL -1.6, TRPV1 PAM 12.0, ClpP mod 1.1%, gsp agonist inconclusive and gsp antag -13.7%.
CC(C)c1ccc(/C=C/C(=O)NC(=S)NN2CCOCC2)cc1 was read as Sfp PPTase inh 3.3%, D2 potentiator -11.6, TRPV1 PAM 12.2, ClpP mod 1.8%, gsp agonist -10.0% and gsp antag -13.7%.
For Cn1c(SCC(=O)NCC2CCCO2)nc2scc(-c3ccccc3)c2c1=O (stereo not given) the results were D2 potentiator -0.5, TRPV1 PAM 10.2, ClpP mod -0.8%, gsp agonist 8.9% and gsp antag -21.8%.
`CC(=O)Nc1ccc(S(=O)(=O)NCC(=O)NNC(=O)COc2ccccc2Cl)cc1` gave D2 potentiator 3.4, TRPV1 PAM 9.1, gsp agonist -2.6%[15.4 µM] and gsp antag 2.5%.
CC(C)C(NC(=O)C1(NC(=O)OCc2ccccc2)CCCC1)C(=O)O (stereo not given) was read as D2 potentiator -15.3, ClpP mod -14.6%, gsp agonist -2.8%[15.4 µM] and gsp antag 4.9%.
O=C(CSc1ccccn1)N1CCNC1=O was read as D2 potentiator -42.5, ClpP mod 0.1%, gsp agonist -2.4%[15.4 µM] and gsp antag 11.3%.
COCCNC(=S)NNC(=O)c1cccs1 was read as Sfp PPTase inh 8.7%, D2 potentiator -2.7, Menin MLL FP FL 4.8, TRPV1 PAM 7.2, gsp agonist inconclusive and gsp antag 8.5%.
Screening CC(OC(=O)c1cccc([N+](=O)[O-])c1)C(=O)NCc1ccc2c(c1)OCO2 (stereo not given) returned Sfp PPTase inh 20.3%, D2 potentiator -13.3, TRPV1 PAM -27.3, ClpP mod -2.3%, gsp agonist 29.6% and gsp antag 3.9%.
For O=c1[nH]c(-c2ccc(O)cc2)nc2scc(-c3cccs3)c12 the results were Sfp PPTase inh -0.8%, D2 potentiator 6.6, Menin MLL FP FL 0.5, TRPV1 PAM -15.4, ClpP mod 3.7%, gsp agonist inconclusive and gsp antag -22.6%.
`COc1ccc(Cl)cc1-c1nc(SCC(=O)NC(C)C(C)C)n[nH]1` (stereo not given) gave Sfp PPTase inh 3.3%, D2 potentiator -5.9, Menin MLL FP FL 2.4, TRPV1 PAM -14.5, gsp agonist 15.2% and gsp antag 2.9%.

Outcome played no part in choosing rows. About 5.1% of those tested had a hit in this group.
